Insulin prom inh – TRM-6 insulin promoter activity inhibition | inhibition, % at 2 µM | AID 1273 | 130,000 compounds, 0.9% hits | TRM-6 cells (human fetal islet line), insulin promoter-eGFP reporter, imaging; reporter expression induced with tamoxifen;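 active = inhibition above the mean plus 3 SD, with well images judged a real hit on visual review, cut at about 60% in these data, passing the limit was not always enough; inconclusive = inhibition over the cutoff but images rejected on review; inactive = inhibition not above the cutoff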
HSV augment – increases HSV replication in cells | AID 1956 | maximum fold increase | 220,000 compounds, 0.005% hits | HSV replication augmentation in cells, fold increase;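 active = peak rise of 1.5-fold or more in the series; inconclusive = self-fluorescent or not available for retest; tested in PC3 cells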;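 note: first round at 10 µM; read as green reporter fluorescence; hits show the peak of a series up to 25 µM; 1 = signal of infected wells without compound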
PKD1 kinase inh – blocks activity of human protein kinase D1; inhibition, %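 (about 10 µM by stock and volumes)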; PKD1 kinase fluorescence polarization assay; 200,000 compounds, 0.056% hits;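 active = inhibition of 50% or more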;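 note: controls were vehicle for no effect and a reference inhibitor for full effect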
RGS16-Gao – regulators of human RGS16-Galphao interaction; O15492+P09471; bead-based flow cytometry RGS16-Galphao binding, fluorescence; actives lie on both sides; binding response (% of control), % at 10 µM; 220,000 compounds, 0.38% hits;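 active = below 25% or above 175%, edge rows of some plates excepted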;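 note: Galphao activated by GDP with aluminum fluoride before binding; 100% = wells without compound and 0% = beads without RGS; some results beyond the cut were filed as inactive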
Target sequence (O15492 whole entry, looked up): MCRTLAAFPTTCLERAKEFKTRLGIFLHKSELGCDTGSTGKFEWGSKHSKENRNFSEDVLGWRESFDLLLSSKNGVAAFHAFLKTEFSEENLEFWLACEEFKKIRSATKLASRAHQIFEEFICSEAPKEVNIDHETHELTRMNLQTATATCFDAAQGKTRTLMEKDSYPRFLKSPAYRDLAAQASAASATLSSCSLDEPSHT
Target sequence (P09471 whole entry, looked up): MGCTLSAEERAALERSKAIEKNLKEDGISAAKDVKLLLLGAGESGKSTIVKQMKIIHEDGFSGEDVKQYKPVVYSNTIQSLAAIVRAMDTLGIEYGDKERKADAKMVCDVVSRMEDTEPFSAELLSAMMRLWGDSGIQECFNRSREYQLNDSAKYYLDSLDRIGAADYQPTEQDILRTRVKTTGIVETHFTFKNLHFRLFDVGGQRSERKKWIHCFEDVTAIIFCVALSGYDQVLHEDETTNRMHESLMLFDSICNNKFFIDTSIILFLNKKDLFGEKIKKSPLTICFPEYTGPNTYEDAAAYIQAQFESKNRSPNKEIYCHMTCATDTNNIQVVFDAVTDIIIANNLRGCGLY
GALR2 ag – activates the human galanin receptor 2 | O43603 | activation, %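 (tested at 5 µM)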 | 140,000 compounds, 0.48% hits | GALR2-expressing cells, agonist activation read-out;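 active = above mean plus 3 SD of all compounds, about 5% in these data, not always enough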;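 note: 0% = vehicle buffer wells and 100% = reference agonist at full effect; tested in CHO reporter cells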
Target sequence (O43603 whole entry, looked up): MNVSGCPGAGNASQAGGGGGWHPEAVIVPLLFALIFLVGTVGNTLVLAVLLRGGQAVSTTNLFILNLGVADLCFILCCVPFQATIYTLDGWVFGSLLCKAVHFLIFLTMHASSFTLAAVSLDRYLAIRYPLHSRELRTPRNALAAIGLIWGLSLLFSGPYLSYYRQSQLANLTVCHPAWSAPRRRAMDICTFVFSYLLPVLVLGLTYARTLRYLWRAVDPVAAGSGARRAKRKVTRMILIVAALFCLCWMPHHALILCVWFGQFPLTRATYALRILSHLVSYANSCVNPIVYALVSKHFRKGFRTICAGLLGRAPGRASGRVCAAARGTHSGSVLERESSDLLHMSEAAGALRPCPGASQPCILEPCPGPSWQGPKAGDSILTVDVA
Insulin prom inh cell count – second read-out of Insulin prom inh, no call of its own (marks repeat the call); normalized cell count, %; measured here: cell count, toxicity; reference of the scale not given here;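 cells exposed to compound for 48 h; stained nuclei by imaging scaled within each plate; lower means fewer cells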
HSV augment primary fold – further read-out of HSV augment, marked with its call; fold increase; compound at 10 µM; measured here: primary screen fold increase 10 uM; tested in PC3 cells;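 GFP signal in the first replicate; 1 = infected wells without compound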
* marks the source's active call; other numbers are inactive results; i = inactive; ? = inconclusive; / = not tested or not shown; & = joins results of further samples. Not all compounds are listed; count on the stated rates, not on these rows.

The line under a structure holds: Insulin prom inh cell count | Insulin prom inh | GALR2 ag | HSV augment | HSV augment primary fold | PKD1 kinase inh | RGS16-Gao
1. C=CCn1c(O)c(C(CC)=NCc2cc(OC)cc(OC)c2)c(=O)[nH]c1=O
 : 146 | 29 | -0.6 | i | 0.98 | 7 | 100
2. CCCn1cc2c3c(cccc31)C1CC(C)CN(C)C1C2 (centres undefined)
 : / | / | / | i | 1.2 | / | 99
3. COc1ccc(-n2c(C)nc3cc(C(=O)N4CCC5(CC4)OCCO5)ccc32)cc1
 : / | / | -1.9 | i | 0.84 | 3 | 100
4. CN(C)C(=O)Oc1cccc(NC(=O)N2CCOCC2)c1
 : 82 | 45 | -0.6 | i | 1.1 | -5 | 113
5. CCOC(=O)C(O)(c1ccc(N(CC)S(=O)(=O)c2ccc(C)cc2)cc1)C(F)(F)F (centres undefined)
 : 93 | 19 | -1.9 | i | 1.1 | -7 | 102
6. CCOC(=O)c1cc2c(cn1)[nH]c1ccccc12
 : 118 | 52 | 0.0 | i | 0.81 | -7 | 108
7. CCN1CCN(Cc2cc(OC)c(OC)cc2[N+](=O)[O-])CC1
 : / | / | -0.7 | i | 1.2 | -2 | 116
8. CN(CCOc1ccc(C=C2C(=O)NC(=O)NC2=O)cc1)c1ccccn1
 : / | / | / | i | 1.1 | -2 | 102
9. COP(=O)(OC)C1(O)C(=O)Nc2ccc(Br)cc21 (centres undefined)
 : 137 | 12 | -3.7 | i | 0.95 | 1 | 103
10. O=c1[nH]c(=O)n(-c2ccccc2)c(O)c1/C=C1/C(c2ccccc2)=Nc2ccccc21
 : 70 | -55 | 0.5 | i | 0.73 | 1 | 98
11. Cc1nc2cc(F)ccc2n1C1CCN(Cc2nnnn2CCc2ccccc2)CC1
 : 71 | 25 | -2.3 | i | 0.98 | -18 | 92
12. O=C1CCN(C(=O)CCCn2c(=O)oc3ccccc32)CC1
 : / | / | / | i | 0.93 | -1 | 106
13. O=C1NC(=O)C(=Cc2csc3ccccc23)C(=O)N1
 : / | / | / | i | 0.92 | / | 93
14. CCN1CCN(C(c2cccs2)C(C)NC(=O)Oc2ccccc2)CC1 (centres undefined)
 : / | / | / | i | 0.89 | -5 | 100
15. CCOC(=O)CCN=Cc1c(O)n(-c2ccc(Br)cc2)c(=O)[nH]c1=O
 : 111 | -9 | -1.7 | i | 0.96 | -5 | 101

Single records (already shown).
CCCn1cc2c3c(cccc31)C1CC(C)CN(C)C1C2 (centres undefined) in the list: Insulin prom inh cell count = /; Insulin prom inh = /; GALR2 ag = /; HSV augment = i; HSV augment primary fold = 1.2; PKD1 kinase inh = /; RGS16-Gao = 99
CCOC(=O)C(O)(c1ccc(N(CC)S(=O)(=O)c2ccc(C)cc2)cc1)C(F)(F)F (centres undefined) in the list: Insulin prom inh cell count = 93; Insulin prom inh = 19; GALR2 ag = -1.9; HSV augment = i; HSV augment primary fold = 1.1; PKD1 kinase inh = -7; RGS16-Gao = 102
CCN1CCN(C(c2cccs2)C(C)NC(=O)Oc2ccccc2)CC1 (centres undefined) in the list: Insulin prom inh cell count = /; Insulin prom inh = /; GALR2 ag = /; HSV augment = i; HSV augment primary fold = 0.89; PKD1 kinase inh = -5; RGS16-Gao = 100

The main list resumes, starting five compounds before the break.
The line under a structure holds: Insulin prom inh cell count | Insulin prom inh | GALR2 ag | HSV augment | HSV augment primary fold | PKD1 kinase inh | RGS16-Gao
11. Cc1nc2cc(F)ccc2n1C1CCN(Cc2nnnn2CCc2ccccc2)CC1
 : 71 | 25 | -2.3 | i | 0.98 | -18 | 92
12. O=C1CCN(C(=O)CCCn2c(=O)oc3ccccc32)CC1
 : / | / | / | i | 0.93 | -1 | 106
13. O=C1NC(=O)C(=Cc2csc3ccccc23)C(=O)N1
 : / | / | / | i | 0.92 | / | 93
14. CCN1CCN(C(c2cccs2)C(C)NC(=O)Oc2ccccc2)CC1 (centres undefined)
 : / | / | / | i | 0.89 | -5 | 100
15. CCOC(=O)CCN=Cc1c(O)n(-c2ccc(Br)cc2)c(=O)[nH]c1=O
 : 111 | -9 | -1.7 | i | 0.96 | -5 | 101
16. CN1CCN(c2c(C#N)c(C(F)(F)F)nn2C)CC1
 : / | / | / | i | 0.97 | -3 | 100
17. COc1ccc(-n2c(SCCN(C)C)nc3ccccc3c2=O)cc1
 : / | / | / | i | 0.91 | / | 82
18. CCOc1ccc(-n2c(O)c(C=NCCCn3ccnc3)c(=O)[nH]c2=O)cc1
 : 120 | 23 | 0.2 | i | 1.1 | -9 | 109
19. CCOC(=O)C1=Nc2ccccc2/C1=C\c1c(O)n(C)c(=O)n(C)c1=O
 : / | / | / | i | 1.1 | / | 94
20. CC/C(=N\N1CCCCC1)c1c(O)[nH]c(=O)[nH]c1=O
 : / | / | / | i | 0.84 | / | 103
21. CC(=O)c1c(C)[nH]c(C(=O)N2CCC3(CC2)OCCO3)c1C
 : / | / | -2.5 | i | 0.96 | 0 | 33
22. COCCNC(=O)CN1C(=O)CN=C(c2ccccc2)c2ccccc21
 : / | / | / | i | 0.98 | / | 100
23. Cc1cccc(-c2nc3ccccc3c(=O)n2-n2cccc2)c1
 : 98 | -58 | -1.9 | i | 0.83 | 1 | 108
24. C=CCn1c(O)c(/C(C)=N/N2CCCCCC2)c(=O)[nH]c1=O
 : / | / | / | i | 1.1 | / | 98
25. O=C(CF)NC(NC(=S)Nc1ccccc1O)C(Cl)(Cl)Cl (centres undefined)
 : / | / | / | i | 0.95 | -2 | 99
26. CSc1ccc(CN2CCN(Cc3ccccc3Cl)CC2)cc1
 : 111 | -38 | / | i | 1 | 3 | 98
27. Cc1cc(Cl)ccc1OCC(=O)O
 : 126 | 55 | -0.9 | i | 1 | -14 | 99
28. O=P(O)(O)Cc1c(Cl)cccc1Cl
 : 56 | -33 | -1.5 | i | 0.94 | -9 | 198
29. O=C1NC(=O)N(CCC2=CCCCC2)C(=O)/C1=C/c1cccs1
 : / | / | / | i | 1 | / | 91
30. COc1ccc(C(=O)C2CCCN(Cc3ccc(C)s3)C2)cc1OC (centres undefined)
 : / | / | / | i | 1 | -12 | 97
31. COc1cccc(C2C([N+](=O)[O-])=C(N)Oc3c2c(=O)oc2ccccc32)c1 (centres undefined)
 : 106 | 27 | -2.8 | i | 0.98 | 4 | 96
32. CSc1ccc(CN2CCN(C(=O)COc3ccc(C)cc3)CC2)cc1
 : 107 | 10 | / | i | 0.96 | -9 | 112
33. C=CCn1c(O)c(/C=C2/C=CC=N2)c(=O)[nH]c1=O
 : / | / | -0.9 | i | 1.1 | -9 | 105
34. CCOC(=O)c1c(C)c(P(=S)(N2CCOCC2)N2CCOCC2)n(C)c1C
 : 38 | -9 | -1.3 | i | 1.1 | 5 | 100
35. CCN(N=Nc1nonc1OC)c1nonc1OC
 : 101 | -28 | -2.5 | i | 0.93 | -1 | 103
36. CCOC(C(=O)OCC(O)CN(CC)CC)(c1ccccc1)c1ccccc1 (centres undefined)
 : 118 | 64 | -2.8 | i | 0.94 | -10 | 94
37. CCN1CCN(C(=O)Cc2coc3cc(C)cc(C)c23)CC1
 : 49 | -450 | -3.3 | i | 0.93 | 1 | 105
38. CC(=O)CC(c1ccccc1[N+](=O)[O-])c1c(O)c2ccccc2oc1=O (centres undefined)
 : / | / | / | i | 1 | / | 99
39. Cn1c(=O)cc(SCC(=O)N2CCC3(CC2)OCCO3)c2ccccc21
 : / | / | -2.2 | i | 1.1 | -6 | 94
40. CN(C)CCOC(=O)c1cn(Cc2ccccc2)c2ccccc12
 : / | / | -2.1 | i | 0.91 | 7 | 93
41. Cc1ccc(-n2c(O)c(C=NCc3cccnc3)c(=O)[nH]c2=O)cc1C
 : 134 | 23 | 0.4 | i | 0.97 | 4 | 100
42. O=c1[nH]c(=S)[nH]c(O)c1N=Nc1ccc(OC(F)F)cc1
 : / | / | / | i | 0.93 | 3 | 103
43. Cc1cccc(C(=O)Nc2ccc(Cl)cc2C(=O)c2ccccc2)c1
 : 58 | -45 | 1.0 | i | 1 | 1 | 100
44. c1ccc2c(CNC3CCCCC3)c[nH]c2c1
 : 149 | -4 | -0.5 | i | 0.79 | -3 | 105
45. O=P(c1ccccc1)(c1nc2ccccc2s1)N1CCOCC1 (centres undefined)
 : 51 | -62 | -2.0 | i | 1.2 | 3 | 99
46. c1ccc2sc(N3CCNCC3)nc2c1
 : / | / | / | i | 0.97 | -3 | 102
47. Cc1ccc(-n2c(O)c(C=N)c(=O)n(-c3ccc(C)cc3)c2=O)cc1
 : / | / | / | i | 1 | / | 101
48. N#Cc1ccc(NC(=O)CN2CCCC2)cc1Cl
 : 94 | -186 | / | i | 0.93 | -1 | 96
49. CN1C(=O)C(=Cc2sc(=O)n(-c3ccccc3)c2N(C)C)C(=O)N(C)C1=O
 : / | / | / | ? | / | / | 100
50. Cc1cc(/C=C2\C(=O)NC(=O)N(c3ccc(F)cc3)C2=O)c(C)n1-c1cccc(C(=O)O)c1
 : / | / | / | i | 1 | -4 | 101
51. CCC(=O)Nc1cc(C(=O)N2CCC3(CC2)OCCO3)ccc1S(=O)(=O)c1ccc(C)cc1
 : / | / | -0.2 | i | 0.94 | 1 | 101
52. CCC1(C)OC(c2ccccc2)=C/C(=C/C=C2C(=O)NC(=O)NC2=O)O1 (centres undefined)
 : 112 | -7 | / | ? | / | -2 | 97
53. Fc1ccccc1N1CCN(Cc2c(F)cccc2F)CC1
 : 41 | 44 | 0.5 | i | 1.1 | -21 | 101
54. CCOC(=O)c1ccc(NC(=O)c2c(O)[nH]c(=O)[nH]c2=O)cc1
 : 95 | 36 | -0.2 | / | / | -9 | 88
55. CC(C)CC1C(C#N)=C(N)Oc2c1c(=O)oc1ccccc21 (centres undefined)
 : / | / | -2.3 | i | 1.1 | 9 | 99
56. Cc1cccnc1-n1c(C)nc2ccccc2c1=O
 : 148 | -10 | 0.2 | i | 0.99 | -13 | 101
57. O=S(=O)(c1ccc(Cl)cc1)N1CCCCC1c1cccnc1 (centres undefined)
 : 133 | -58 | / | i | 0.91 | 3 | 127
58. Clc1ccc2c(c1)C(c1ccccc1Cl)=NCc1nnc(Br)n1-2
 : 79 | -190 | -2.5 | i | 0.98 | 4 | 82
59. CC(=O)NC(Cc1ccc(N(CCCl)CCCl)cc1)C(=O)NC(C(=O)O)C(C)C (centres undefined)
 : / | / | / | i | 1.1 | -7 | 101
60. O=C(CN1CCOCC1)NCC(=O)Nc1ccc(Br)cc1C(=O)c1ccccc1
 : 103 | -40 | -2.3 | i | 1.2 | -2 | 96

Part of the list above, showing only HSV augment.
#	Compound	HSV augment
57	O=S(=O)(c1ccc(Cl)cc1)N1CCCCC1c1cccnc1 (centres undefined)	i
5	CCOC(=O)C(O)(c1ccc(N(CC)S(=O)(=O)c2ccc(C)cc2)cc1)C(F)(F)F (centres undefined)	i
42	O=c1[nH]c(=S)[nH]c(O)c1N=Nc1ccc(OC(F)F)cc1	i

More structures
The line under a structure holds: Insulin prom inh cell count | Insulin prom inh | GALR2 ag | HSV augment | HSV augment primary fold | PKD1 kinase inh | RGS16-Gao
61. CCOc1ccc(-n2c(O)c(C=Nc3ccc(N(CC)CC)cc3)c(=O)[nH]c2=O)cc1
 : / | / | -1.2 | i | 0.84 | 2 | 103
62. COc1ccccc1OCCCn1cc(C(=O)C2CC2)c2ccccc21
 : / | / | / | i | 0.91 | 5 | 102
63. N=c1sccn1Cc1ccc(Cl)cc1Cl
 : 166 | 28 | 0.3 | i | 0.87 | 5 | 96
64. CC(C)OC1CCCC(O)C1CC(=O)O (centres undefined)
 : / | / | / | i | 1.1 | / | 100
65. O=Cc1cn(Cc2cccc([N+](=O)[O-])c2)c2ccccc12
 : 46 | 34 | -2.3 | i | 1.1 | 1 | 33
66. CC1CN(O)C2CCc3c(no[n+]3[O-])C12O (centres undefined)
 : 96 | -14 | -1.6 | i | 0.91 | -5 | 104
67. O=c1c2ccccc2[nH]c(=S)n1-c1ccc(Br)cc1
 : / | / | / | i | 1 | -7 | 99
68. CCN(CC)c1ccc(/C=N/c2sc3c(c2C#N)C2CCN3CC2)c(O)c1
 : 118 | -285 | -2.7 | / | / | 7 | 106
69. CC(NCc1ccccc1C(F)(F)F)C(O)c1ccccc1 (centres undefined)
 : 31 | 35 | / | i | 1 | -4 | 108
70. COC(=O)Nc1ccc(N=C(N)N[N+](=O)[O-])cc1
 : 95 | -14 | / | i | 0.91 | -10 | 110
71. Oc1ccc(/C=N/NP(=S)(c2ccccc2)c2ccccc2)cc1O
 : 121 | 3 | -1.1 | / | / | -3 | 88
72. N#CCCn1cc(C(=O)Nc2ccccc2Br)c(-c2ccc([N+](=O)[O-])cc2)n1
 : 130 | -22 | -1.8 | i | 0.79 | 8 | 99
73. CCn1cc(C(=O)O)c(=O)c2ccc(C)nc21
 : 101 | -9 | -0.8 | i | 0.95&0.62 | -12 | 110&65

Screening results from PubChem BioAssay.
